Assay outcomes from PubChem.
CtBP-E1A blk – qHTS Assay for Inhibitors of the CtBP/E1A Interaction | activity change, % (no concentration beside the values) | AlphaScreen GST-E1A/His-CtBP binding, 1536-well; stronger effect = lower value; control for the full effect not named in the record | 340,000 compounds, 0.49% hits | AID 651724, 2012; in the data active means activity change below about -65%; inconclusive means about -30% to -65%; inactive means above about -30%; also: % is scaled to controls: 0 for no effect and ±100 for the full control effect
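AlphaScreen with 125 nM GST-E1A and 125 nM His-CtBP (5X stocks) in Tris pH 8.0, 300 mM NaCl, BSA, Tween 20, TCEP. Compounds preincubated 2 h at 37 deg C, then glutathione donor/nickel acceptor beads added for 1 h at 37 deg C in dark.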
Menin-MLL FL inh – qHTS Assay for Inhibitors Targeting the Menin-MLL Interaction in MLL Related Leukemias: Competition With Fluorescein Labeled MLL-derived Peptide | Fluorescence polarization, fluorescein-MLL peptide displacement from menin | FP activity change, % at 61.4 µM | 290,000 tested, under 10 active; inconclusive = falling polarisation curve, or a change in total fluorescence; inactive = total fluorescence flat and polarisation flat or rising; no compound was filed as active; the % refers to the polarisation; negative = inhibition;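 also: % of control where 0% means no effect; inhibitors lower the polarisation; unlabelled MLL peptide was the positive control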
gsp ag – qHTS for Agonist of gsp, the Etiologic Mutation Responsible for Fibrous Dysplasia/McCune-Albright Syndrome: qHTS; gsp mutant cells, cAMP HTRF, 30 min; control for the full effect not named in the record; Potency, µM (top dose mostly 76.9 µM), without a hit: at the highest dose activation (cAMP increase), actives largely listed as activators; 340,000 compounds, 0.13% hits; AID 624287, 2012; active = well fitted activation curve with a large enough effect; inconclusive = small, poorly fitted or top-dose-only effect, or another doubt; inactive = no such curve, though single readings can be large or run the other way; cell line not stated here;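 also: phosphodiesterase inhibitor Ro 20-1724 added with compounds to block cAMP breakdown; potency is read from the fitted curve at half-maximal effect; nearly all actives have a fitted effect of over 60% in size; about a fifth of the inactives were tested at one dose only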
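Cells stably selected in G418 were plated at 2000/well, grown 16-24 hr, then given compounds in DMSO with the PDE inhibitor […] (300 uM solution added) for 30 min at 37C; cAMP was read by HTRF.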
TRPV1 potentiator – HTS Assay for Compounds that Act as Potentiators of the Vanilloid Receptor 1 | Transient receptor potential cation channel subfamily V member 1 (Homo sapiens), Q8NER1 | TRPV1-expressing cells, Fluo-8 calcium influx, capsaicin EC20 potentiation; host cell line not named in the record; control for the full effect not named in the record | potentiation, % at 8.33 µM | 320,000 compounds, 0.02% hits | AID 540277, 2011; active means potentiation above 80%; inconclusive means 30% to 80%; inactive means below 30%; also: 0% is about no effect
Target sequence (Q8NER1 whole entry, looked up): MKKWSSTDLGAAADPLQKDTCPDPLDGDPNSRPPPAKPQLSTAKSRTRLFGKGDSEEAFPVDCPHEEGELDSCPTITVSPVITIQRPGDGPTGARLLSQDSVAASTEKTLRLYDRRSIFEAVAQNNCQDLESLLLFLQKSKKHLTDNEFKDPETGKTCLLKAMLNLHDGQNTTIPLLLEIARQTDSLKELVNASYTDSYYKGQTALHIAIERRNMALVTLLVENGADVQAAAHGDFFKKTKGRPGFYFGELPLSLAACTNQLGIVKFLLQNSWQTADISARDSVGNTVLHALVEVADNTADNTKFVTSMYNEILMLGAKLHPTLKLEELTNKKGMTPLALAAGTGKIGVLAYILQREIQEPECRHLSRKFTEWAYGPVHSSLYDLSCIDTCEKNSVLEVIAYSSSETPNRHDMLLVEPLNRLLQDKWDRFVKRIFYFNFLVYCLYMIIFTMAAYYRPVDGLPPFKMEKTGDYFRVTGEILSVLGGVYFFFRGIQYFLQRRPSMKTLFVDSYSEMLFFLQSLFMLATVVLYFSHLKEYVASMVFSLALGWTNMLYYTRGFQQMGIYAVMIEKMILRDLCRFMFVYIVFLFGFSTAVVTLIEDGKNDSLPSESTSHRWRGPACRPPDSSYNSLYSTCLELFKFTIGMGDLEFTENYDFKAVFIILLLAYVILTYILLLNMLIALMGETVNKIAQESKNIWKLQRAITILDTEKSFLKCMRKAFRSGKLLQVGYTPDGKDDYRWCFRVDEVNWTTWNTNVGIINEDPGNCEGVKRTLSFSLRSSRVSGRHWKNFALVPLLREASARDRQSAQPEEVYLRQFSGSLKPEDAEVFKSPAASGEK
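Fluo-8 calcium influx in TRPV1-expressing cells, kinetic read (ex 480/em 520 nm). Compound added and read 3 min for agonist activity, followed by capsaicin at EC20 final and 2 min further read for enhancement.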
gsp antag – qHTS for Antagonists of gsp, the Etiologic Mutation Responsible for Fibrous Dysplasia/McCune-Albright Syndrome: qHTS | gsp-mutant cells, cAMP HTRF, 30 min; control for the full effect not named in the record | Potency, µM (titrated, usually from 76.9 µM), without a hit: at the highest dose activity change, negative = inhibition, hits mostly inhibitors | 340,000 compounds, 0.4% hits; active = falling curve of any shape with a large fitted effect; inconclusive = falling curve, mostly with a smaller effect; inactive = flat or rising curve; cell line not stated here;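 also: intracellular cAMP measured with PDE inhibitor Ro 20-1724 present during compound exposure; potency is read from the fitted curve at half-maximal effect; % is scaled to controls: 0 for no effect and ±100 for the full control effect; nearly all actives have a fitted effect of over 65% in size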
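Measurement of cellular cAMP by homogeneous time-resolved fluorescence following a 30 min compound exposure at 37C. The PDE inhibitor […] was present throughout; the assay buffer was DPBS with 0.05% BSA and 0.005% Tween 20.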
Sfp PPTase inh – qHTS Assay for Inhibitors of Bacillus subtilis Sfp phosphopantetheinyl transferase (PPTase). 4'-phosphopantetheinyl transferase ffp (Bacillus subtilis), Q9F4F7. Biochemical Sfp PPTase activity, qHTS. Potency, µM, without a hit: max response, negative = inhibition, actives largely listed as inhibitors. 310,000 compounds, 3.5% hits. AID 1490, 2009; active = well fitted inhibition curve with a large enough effect; inconclusive = small, poorly fitted or top-dose-only effect, or another doubt; inactive = no such curve, though single readings can be large or run the other way;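 also: the enzyme is Sfp with the accession as filed and its product quenches rhodamine fluorescence; potency is read from the fitted curve at half-maximal effect; 0% = enzyme reaction without inhibitor and -100% = no enzyme wells; top concentration of the series not given in the record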
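After 15 min at room temperature with compound, 15 nM Sfp received 5 uM rhodamine-CoA plus 12.5 uM BHQ-2-ybbR (50 mM Hepes pH 7.6, 10 mM MgCl2). Rate came from the fluorescence difference over 30 min, ex 525/em 598 nm.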
ClpP mod – qHTS Assay for Activators of ClpP; Potency, µM (series often up to 57.5 µM), without a hit: top-dose activity change, negative = active; ATP-dependent Clp protease proteolytic subunit (Bacillus subtilis (strain 168)), P80244; 340,000 compounds, 1.9% hits; purified B. subtilis ClpP, FRET peptide cleavage, 20 min; active = well fitted falling curve with a large enough effect; inconclusive = small, poorly fitted or top-dose-only effect; inactive = no such curve, though single readings can be large or run the other way; also: potency is read from the fitted curve at half-maximal effect; the source files actives as falling curves though it sought activators and does not explain the sign; nearly all actives have a fitted effect of over 65% in size; many hits overshoot -100%
Target sequence (P80244 whole entry, looked up): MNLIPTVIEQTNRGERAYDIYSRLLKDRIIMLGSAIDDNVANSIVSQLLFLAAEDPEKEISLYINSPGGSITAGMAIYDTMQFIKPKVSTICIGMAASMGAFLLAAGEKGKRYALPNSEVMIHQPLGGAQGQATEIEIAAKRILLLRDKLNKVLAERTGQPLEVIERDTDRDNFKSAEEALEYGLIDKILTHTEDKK
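Purified B. subtilis ClpP, 10 microg/mL final in Tris/HCl pH8 with KCl, BSA, glycerol and Tween-20, cleaved an Abz/nitrotyrosine-quenched decapeptide. Fluorescence (ex 320, em 430) was read at 0 and 20 min at room temperature. Delta was normalized to 5.8 microM ADEP and DMSO/no-enzyme controls.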
The depositor's hits bear a star; ? = inconclusive; · = not tested or not shown; & = joins results of further samples; [ ] = dose if it differs, or a comment.

canonical_smiles	CtBP-E1A blk	Menin-MLL FL inh	gsp ag	TRPV1 potentiator	gsp antag	Sfp PPTase inh	ClpP mod
O=C1CC(c2ccccc2)CC(O)=C1C=NC1CCCC1 (stereo not given)	6	1.7	-34%[inhibitor]	-5	4%	9%	-0.9%
COc1ccc(-c2cccc([C@H]3[C@@H]4C=CCC[C@@]4(C)C(=O)N3Cc3ccccc3)c2)cc1	·	3.0	-3%	9	-21%	-25%	-3.3%
CCCn1c(N)c(C(=O)CN(C)CC(=O)Nc2cccc(F)c2)c(=O)[nH]c1=O	·	·	13%	5	-5%	·	-2.7%
O=C(O)c1cccc2c1Cc1cc(Cl)ccc1-2	0	·	2%	·	-14%	·	·
Cc1ccc(-c2nsc3c(N4CCC(C(N)=O)CC4)ncnc23)cc1	8	0.3	3%	10	-13%	5%	-14%
Cc1nc(C)c(N)c(=O)[nH]1	·	3.4	20%[15.4 µM]	?	1%	5%	·
CCOc1ccc(S(=O)(=O)N2CCN(C(=S)NC3CC3)CC2)cc1	6	-3.0	6%[15.4 µM]	-29	8%	8%	0.4%
CC(C)NC(=O)c1onc(CSc2ccccn2)c1C(=O)NC(C)C	2	3.2	-14%	-16	3%	10%	0.6%
Cc1c(-c2ccccc2)nc(N)c(C#N)c1-c1cccnc1	·	0.4	-4%	-2	-6%	13%	-27%
C/C(=N\NC(N)=O)C1CC(CC(C)C)C(=O)O1 (stereo not given)	-12	-2.3	?	0	9%	26%	·
Cc1ccc(N2CC(C(=O)NCCN3CCOCC3)CC2=O)cc1 (stereo not given)	3	6.3	-4%[15.4 µM]	-2	-2%	5%	·
COc1ccc(Nc2nc(-c3c[nH]c4ccccc34)cs2)cc1	0	17	-4%	-1	-2%	-22%	-0.9%
O=C(Cn1cc(C(F)(F)F)cc(Cl)c1=O)NCc1ccc(F)cc1	23	-0.1	36%[15.4 µM]	1	-7%	3%	0.3%
CCN1CCN(CCCNC(=O)c2cc3c(=O)oc4ccc(C)cc4c3s2)CC1	-6	·	18%	7	18%	5%	3.9%
CCN1CCN(C(c2cccs2)C(C)NC(=O)C(=O)N2CCCCC2)CC1 (stereo not given)	-6	·	10%	-1	10%	9%	-3.1%
CC1CCCN(CC(=O)N2c3ccccc3Sc3ccccc32)C1 (stereo not given)	-20	-0.6	-24%	-11	-1%	7%	-0.7%
Cc1nnc(SCC(=O)O)s1	-8	9.1	-11%[15.4 µM]	11	24%	-6%	·
CCC(C)Sc1ccc([C@@H]2[C@H]3C(=O)N(CC)C(=O)[C@H]3[C@]3(C(=O)OC)CCCCN23)cc1 (stereo not given in full)	-1	·	-24%	-40	-6%	·	-6.0%
O=C(CCS(=O)(=O)c1ccc(Cl)cc1)N1CCN(S(=O)(=O)c2cccs2)CC1	3	2.6	-15%	-11	?	21%	-1.2%
CCOc1ccc(/C=N/O)cc1	·	2.7	?	0	10%	21%	-0.3%
CC1(C)CC(=O)C2=C(C1)OC(N)=C(C#N)C21CCN(Cc2ccccc2)CC1	-2	?	0%	-13	3%	-1%	-15%
CCOC(=O)CC1=C(C(=O)OCC)C(c2ccc(OC)cc2OC)C(C#N)=C(N)O1 (stereo not given)	0	?	?	2	5%	79µM*	-0.9%
COc1ccc(-c2nnc(-c3ccc(C)cc3)o2)cc1	5	-0.4	0%	-15	1%	12%	·
O=C(N/N=C/c1ccncc1)c1cnccn1	-3	3.8	-2%[15.4 µM]	3	-9%	-6%	·
N#Cc1ccccc1NC(=O)COC(=O)c1ccc2c(c1)OCCO2	1	1.0	1%	?	6%	15%	7.3%
Cc1ccc(-c2cc(C(=O)N3CCN(c4ncccn4)CC3)c3ccccc3n2)cc1	-5	1.0	-20%	1	?	-20%	?
COc1ccc(OC)c(NC(=O)c2cnn(-c3ccccc3)c2C)c1	-3	3.9	-34%[inhibitor]	4	-9%	5%	·
O=C(O)c1c2c(nc3ccc(S(=O)(=O)N4CCC(C(=O)NCc5ccc(Cl)cc5)CC4)cc13)CCCC2	?	4.7	-6%	-16	4%	21%	-1.3%&0.1%
C/C(=N\NC(=O)c1ccc2c(c1)OCO2)c1ccc2c(c1)OCO2	-7	0.7	4%	-24	7%	12%	·
CCn1c(CSc2nccn2C)nc2cc(C(=O)O)ccc21	-4	?	12%	0	5%	56µM*	-29%
O=C(NCc1ccccc1)c1cnc(Cl)c(Cl)c1	-12	-0.1	-3%[15.4 µM]	-18	-6%	3%	·
COc1cccc(NC(=O)C(NCC2CCCCC2)c2ccccc2)c1 (stereo not given)	2	6.7	-16%	-1	-8%	50µM*	-3.2%
COC(C[C@H](O)[C@@H](C)[C@H](O)COCc1ccccc1)OC	0	4.4	11%	5	1%	7%	0.4%
Cc1cccc(NC(=O)CNC(=O)CN2C(=O)NC3(CCc4ccccc43)C2=O)c1C (stereo not given)	-1	·	-6%	-3	1%	·	-2.2%
CCC(=O)N1CCN(c2ccc(NC(=O)c3ccc(-c4ccccc4)cc3)cc2)CC1	·	2.7	·	4	·	19%	·
CCc1ccc(N(CC(=O)NCC2CCCO2)C(=O)CCC(=O)Nc2nccs2)cc1 (stereo not given)	0	·	7%	1	5%	17%	·
CCC(=O)Oc1ccc(C2NC(=O)c3ccccc3O2)cc1OC (stereo not given)	-5	0.2	-2%[15.4 µM]	?	2%	16%	-4.1%
Cc1c(Cl)cccc1N1C(=O)C2ON(c3ccccc3)C(c3cccnc3)C2C1=O (stereo not given)	6	0.8	-10%	12	-15%	7%	0.4%
CC(C)c1ccc(OCC(=O)N2CCc3ccccc3C2)cc1	39	6.8	-14%	2	-17%	7%	·
O=C1c2ccccc2C(=O)N1CCSc1nc2ccccc2c(=O)n1CCCN1CCOCC1	2	0.2	-11%[15.4 µM]	-3	-1%	-6%	1.5%
CC(C)=CCc1c(O)cc(O)c2c(=O)c3c(CC=C(C)C)c(O)ccc3oc12	-10	·	·	·	-8%	·	-2.7%
Cc1cc(C)cc(N(C(=O)c2sc(C)nc2C)C(C(=O)NCc2ccco2)c2ccccc2)c1 (stereo not given)	14	-0.4	-7%	-10	-13%	?	2.7%
CC(C)Nc1nc(Cl)nc(NCCOc2ccccc2)n1	11	4.9	-2%[15.4 µM]	-1	12%	13%	·
CCN1CCN(C(=O)c2ccc3c(c2)S(=O)(=O)c2ccccc2C3=O)CC1	7	1.0	13%	-5	-2%	6%	1.5%
C(=N\n1cnnc1)/c1ccc(OC2CSC2)cc1	47	-4.1	-3%	-15	-15%	9%	2.1%
O=C(NC1CCCCC1)C1(c2ccccc2)CC1(Cl)Cl (stereo not given)	·	12	-20%	-39	-4%	12%	-1.8%
O=C(NCc1cccc(C(F)(F)F)c1)C1CCN(c2ncccn2)CC1	-1	-4.0	-52%[inhibitor]	13	-2%	1%	-6.1%
CCOC(=O)C1CCN(C(=O)/C=C/c2ccccc2)CC1	3	-5.6	13%[15.4 µM]	25	4%	11%	·
CCc1nc2nc(C)c(NS(=O)(=O)c3ccc(CC(C)C)cc3)c(=O)n2[nH]1	-15	-9.2	-5%	?	3%	15%	·
CC(C)c1ccc(C2CC(=O)c3cnc(NC(=O)c4ccco4)nc3C2)cc1 (stereo not given)	-1	0.4	20%	-10	-36%	-13%	1.4%
Cc1ccc(S(=O)(=O)NCc2ccc(C(=O)N3CCN(c4ccccn4)CC3)cc2)cc1	-2	1.0	-20%	0	3%	20%	?
CC(=O)c1cc(F)c(N2CCN(C(=O)COc3ccccc3F)CC2)cc1C	0	-1.6	23%	-14	15%	11%	0.8%
COc1ccccc1CC(=O)N(CCC#N)CCC#N	5	0.3	0%	21	13%	-2%	1.9%
O=C(Nc1ccc2oc(-c3ccncc3)nc2c1)c1c(F)c(F)c(F)c(F)c1F	-4	1.7	19%	·	8%	22%	?
CN(C(=O)c1cccc(NC(=O)Cc2cccc(NC(=O)C3CCCN(C(=O)C4CCCCC4)C3)c2)c1)C1CCC1 (stereo not given)	-4	·	·	·	-12%	·	0.4%
Nc1ccccc1-c1nnc(SCc2ccccc2Cl)[nH]c1=O	-9	0.6	8%	-8	?	7%	0.0%
Cc1ccc(NC(=O)CSC2=C(C#N)C(c3ccc4c(c3)OCO4)C3=C(CCCC3=O)N2)c(C)c1 (stereo not given)	3	2.5	28%	9	-14%	-15%	-1.7%
CC(=O)NNC(=O)CCn1nnc2ccccc21	-16	-6.2	-8%[15.4 µM]	-2	·	12%	·
CCOC(=O)c1ccc(NS(=O)(=O)N2CCCCCC2)cc1	-1	0.7	2%	3	-2%	12%	1.4%
COc1ccc(NC(C)=O)cc1NS(=O)(=O)c1cn(C)c(=O)n(C)c1=O	4	-0.6	?	5	-3%	14%	-2.6%
CCOC(=O)CNc1ncnc2nc[nH]c12	2	9.6	-10%	9	-2%	24%	0.5%
Cc1ccc(C)c(NC(=S)NCc2cccs2)c1	7	3.5	?	-3	0%	10%	2.2%
